FGF22 binding = binders of human FGF22 protein, primary screen, FGF22 synaptogenesis inhibitor project, biophysical, thermal shift, single point. actives 1.5% (n = 340,000). recombinant FGF22 thermal shift, SYPRO orange fluorescence; percent of sucrose octasulfate shift, DMSO zero. calls only at 9.99 µM. Fibroblast growth factor 22 (Homo sapiens), Q9HCT0. AID 651658, 2012;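 active = melting point raised past a set limit in the mean and every replicate; three in four hits are not shown here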
Target sequence (Q9HCT0 whole entry, looked up): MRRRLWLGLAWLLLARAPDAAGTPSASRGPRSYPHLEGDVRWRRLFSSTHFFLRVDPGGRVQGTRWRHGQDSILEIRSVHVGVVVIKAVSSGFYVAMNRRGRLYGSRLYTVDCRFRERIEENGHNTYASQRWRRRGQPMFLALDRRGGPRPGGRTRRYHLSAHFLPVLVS
Ecoli growth = E. coli growth inhibition, primary screen, OD600; Escherichia coli growth, 23 h; stronger effect = lower value; AID 1053175, 2014; actives 0.21% (n = 330,000); OD600 absorbance (test concentration not listed);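 active = OD600 absorbance below the run mean of sample wells minus 3.6 SD, in any replicate, cut at about 0.56 in these data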;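 note: stock transfer was 300 nL into about 60 µL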
Beta2AR agonist = beta2AR agonists driving receptor internalization, primary screen, cell-based, FAP fluorogen, flow cytometry; response, % (concentration not given with the values); Am2.2-beta2AR cells; reference of the scale not given here; actives 0.43% (n = 340,000); Beta-2 adrenergic receptor (Homo sapiens), P07550;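 active = response above a set limit, near 3 SD of response in nonfluorescent compounds, cut at about 42% in these data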;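 note: stock transfer was 100 nL into about 11 µL; a reference agonist was the positive control; negative values mostly stem from fluorescent compounds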
Target sequence (P07550 whole entry, looked up): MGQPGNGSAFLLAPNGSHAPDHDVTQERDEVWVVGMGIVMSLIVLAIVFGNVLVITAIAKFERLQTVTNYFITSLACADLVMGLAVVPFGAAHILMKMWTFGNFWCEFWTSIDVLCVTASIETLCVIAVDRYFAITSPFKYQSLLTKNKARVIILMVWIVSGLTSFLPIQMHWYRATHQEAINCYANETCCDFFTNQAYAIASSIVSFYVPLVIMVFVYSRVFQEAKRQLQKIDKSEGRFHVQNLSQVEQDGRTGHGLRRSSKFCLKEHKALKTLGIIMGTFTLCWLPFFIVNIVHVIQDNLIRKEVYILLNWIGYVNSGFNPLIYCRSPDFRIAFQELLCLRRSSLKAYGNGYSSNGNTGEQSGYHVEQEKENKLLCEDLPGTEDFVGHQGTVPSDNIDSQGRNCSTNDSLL
LANA-H2B inh = blockers of LANA interaction with H2A/H2B – biochemical, FP readout, HTS, primary screen. Protein LANA1 (Human herpesvirus 8 type P (isolate GK18)), Q9QR71. cell-free LANA-H2A/H2B peptide, fluorescence polarization. inhibition, % (concentration not given with the values). actives 0.6% (n = 320,000); in the data active = inhibition mostly above about 10%, no sharp cut-off; inactive = mostly below about 6.7%;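 note: stock transfer was 7.5 nL into about 10 µL; 0% = median of vehicle wells and 100% = median of positive control wells; one replicate is shown; the record names a cut of 25% in any replicate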
UCH37 DUB inh = inhibitors of human UCH37 deubiquitinase, primary screen, biochemical, Ub-AMC cleavage, fluorescence; inhibition, % (test concentration not listed); purified proteasome/UCH37; Ubiquitin carboxyl-terminal hydrolase isozyme L5 (Homo sapiens), Q9Y5K5; actives 0.33% (n = 330,000);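 active = mean of two replicates above 20%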;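 note: 0% = compound-free wells with enzyme and 100% = wells lacking proteasome; stock transfer was 100 nL into about 20 µL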
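Reagent: Ub-AMC substrate; assay system: Proteasome-associated human UCH37 deubiquitinase; controls: no-proteasome and no-compound wells; read-out: % inhibition of Ub-AMC cleavage fluorescence; timing: 30 min preincubation with enzyme, 25 min cleavage at room temperature; signal: AMC fluorescence from Ub-AMC cleavage, excitation 355 nm, emission 460 nm; buffer or medium: Tris-HCl pH 7.4 plus ovalbumin, ATP-MgCl2, DTT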
HNF4A DNA FP = change in binding of human HNF4A to DNA, primary screen, biochemical, fluorescence polarization, FITC-DNA; activity change, % at 10 µM; Hepatocyte nuclear factor 4-alpha (Homo sapiens), P41235; 1 h; actives 0.3% (n = 360,000); AID 1224865, 2016; in the data active = activity change above about 30%, passing the limit was not always enough;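 note: controls were the assay level and a saturating level of protein; the project sought stronger binding though the title names inhibitors; some compounds called inactive have numbers as strong as hits; positive values seem to mean higher polarization but the record does not say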
Target sequence (P41235 whole entry, looked up): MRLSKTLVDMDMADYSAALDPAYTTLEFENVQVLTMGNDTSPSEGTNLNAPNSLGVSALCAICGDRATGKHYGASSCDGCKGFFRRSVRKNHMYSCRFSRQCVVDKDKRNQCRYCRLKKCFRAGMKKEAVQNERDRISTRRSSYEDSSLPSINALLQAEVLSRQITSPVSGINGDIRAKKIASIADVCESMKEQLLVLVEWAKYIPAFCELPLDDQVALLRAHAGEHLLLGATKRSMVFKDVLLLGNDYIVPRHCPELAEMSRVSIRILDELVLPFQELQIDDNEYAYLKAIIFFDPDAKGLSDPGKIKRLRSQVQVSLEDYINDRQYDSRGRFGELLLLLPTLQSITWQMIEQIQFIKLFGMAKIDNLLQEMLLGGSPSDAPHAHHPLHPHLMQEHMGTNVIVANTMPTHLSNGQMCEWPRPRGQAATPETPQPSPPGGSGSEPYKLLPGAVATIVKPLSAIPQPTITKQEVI
ALR H2O2 inh = inhibitors of human ALR sulfhydryl oxidase, primary screen, biochemical, H2O2 detection, HRP-luminol luminescence, single point; FAD-linked sulfhydryl oxidase ALR (Homo sapiens), P55789; purified ALR, DTT oxidation; inhibition, % (test concentration not listed); actives 3.8% (n = 290,000);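 active = mean and each replicate at 75% or more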;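 note: stock transfer was 7.5 nL into about 7.5 µL; 0% = neutral wells and 100% = wells with inactivated enzyme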
Starred values were filed as active, the others as inactive; i = inactive; . = not tested or not shown. Not all compounds are listed; the hit share may differ from the screen's.

SMILES	FGF22 binding	Ecoli growth	Beta2AR agonist	LANA-H2B inh	UCH37 DUB inh	HNF4A DNA FP	ALR H2O2 inh
COc1cc(OC)c2cc(C(=O)N/N=C/c3cccc(OC)c3O)[nH]c2c1	i	.	10.9	5.7	.	1.0	5.0
CCCn1c(=O)c2c(C(F)(F)F)cc(-c3ccco3)nc2n(CCC)c1=O	.	0.678	4.2	1.2	-256.5	2.2	1.6
CN(C)C(=S)c1ccccc1	i	0.708	-3.5	2.8	6.2	1.3	-18.9
CC(=O)NCCn1c(SCc2ccc(C)cc2C)nc2ccccc2c1=O	.	0.672	-7.1	3.0	1.5	2.0	-5.8
CCCCNC(=S)Nc1ccc([N+](=O)[O-])cc1	.	0.524*	2.1	1.5	6.3	-0.3	-13.5
Cc1cc(C)nc(SCC(=O)Nc2cc(C)on2)n1	.	0.664	-2.5	-0.3	3.6	1.5	-13.8
CCOC(=O)N1CCN(C(=O)c2cn(C)c3ccc(S(=O)(=O)N4CCCC4)cc3c2=O)CC1	.	0.659	-2.4	1.2	7.5	1.8	1.3
CN(C)S(=O)(=O)c1cccc(C(=O)OCC(=O)N2c3ccccc3NC(=O)C2(C)C)c1	.	0.697	10.3	2.6	1.2	1.1	-12.3
CNC(=O)c1csc(-c2ccc(Cl)cc2)n1	i	0.641	-5.5	-0.2	2.6	-1.8	-40.2
Cc1ccc(C(=O)OCC(=O)NC(=O)c2cccn2C)cc1	i	0.77	6.5	1.3	4.8	0.3	5.8
CCC[C@@H](CN[C@@H](CNC)C(C)C)NCCCCc1ccccc1	i	0.785	8.8	-1.0	5.1	-4.0	.
CN(C(=O)COc1ncnc2sccc12)C1CCCCC1	i	0.66	-2.9	-7.2	-1.9	-15.3	.
CS(=O)(=O)N1CCN(C(=O)c2ccncc2)CC1	.	0.739	-8.9	-1.2	-1.3	1.2	0.4
CNS(=O)(=O)c1ccc(NC(=O)c2csc(C)c2)cc1	i	0.629	4.4	4.5	4.9	3.1	-5.9
CC1CCN(C(=O)CSc2nnc3ccccn23)CC1	i	0.654	1.9	0.5	-4.3	-2.8	-2.7
CNS(=O)(=O)c1ccc(NC(=O)C2c3ccccc3Oc3ccccc32)cc1	.	0.697	2.5	4.8	-1.9	-2.1	-9.1
CC1CCN(C(=O)Oc2ccccc2)CC1	i	0.673	-7.5	-2.9	2.2	4.3	-9.3
O=C(O)c1ccc(NC(=O)c2cn(-c3ccccc3)nc2-c2ccccc2)cc1	.	0.649	0.7	-1.1	1.9	-1.9	-4.7
COc1ccc(N2CCN(C(=O)c3ccc(Br)cc3)CC2)c([N+](=O)[O-])c1	.	0.682	8.2	-1.6	1.2	2.8	0.4
COc1ccccc1-n1ccnc1SCC(=O)NCC1CCCO1 (centres undefined)	i	0.66	0.5	-2.0	3.1	-0.2	-0.5
CCC(CO)NCc1ccc(OCC(O)c2ccccc2)c(OC)c1 (centres undefined)	i	0.681	6.1	-6.8	1.8	1.1	-6.6
COc1ccc(S(=O)(=O)NCC2CCCN(Cc3cccc(C(C)=O)c3)C2)cc1 (centres undefined)	i	0.645	-4.8	5.1	-0.3	1.4	75.6*
CC1CCCN(C(=O)c2ccc(S(=O)(=O)Nc3ccccc3Cl)cc2)C1 (centres undefined)	i	0.681	3.5	-1.3	0.7	-3.0	-4.5
Cc1ccc(S(=O)(=O)Nc2cc3c4c(c2)CCN4C(=O)CC3)cc1	i	0.661	1.2	2.1	1.9	1.4	-17.7
COc1ccc(C(=O)N/N=C(\N)c2cc3ccccc3oc2=O)cc1	i	0.706	2.5	3.2	7.0	-2.8	.
Cc1nc([N+](=O)[O-])cn1CC(=O)c1ccccc1	i	0.677	2.0	2.3	1.9	1.4	-5.6
COc1ccc(CCc2nnc(CCC(=O)NCC3CCCO3)o2)cc1 (centres undefined)	i	0.692	-3.9	-3.0	5.0	4.2	-1.3
CCN1Cc2ccccc2-c2ccccc2S1(=O)=O	i	0.692	0.1	.	-1.0	-3.4	.
Cc1ccc(Nc2c3c(nc4ccccc24)CCC3)cc1	i	0.612	-11.6	-0.7	-13.3	5.2	98.4*
Cc1ccc(NS(=O)(=O)c2cc(C(=O)NCc3cccnc3)ccc2C)cc1	i	0.718	8.4	-5.5	0.9	-2.1	-5.7

Entries above printed as active in ALR H2O2 inh.
SMILES | Beta2AR agonist | LANA-H2B inh | UCH37 DUB inh | ALR H2O2 inh
COc1ccc(S(=O)(=O)NCC2CCCN(Cc3cccc(C(C)=O)c3)C2)cc1 (centres undefined) | -4.8 | 5.1 | -0.3 | 75.6*
Cc1ccc(Nc2c3c(nc4ccccc24)CCC3)cc1 | -11.6 | -0.7 | -13.3 | 98.4*

Next section:
SMILES	FGF22 binding	Ecoli growth	Beta2AR agonist	LANA-H2B inh	UCH37 DUB inh	HNF4A DNA FP	ALR H2O2 inh
CCOC(=O)c1c(C)[nH]c(C(=O)CN2C(=O)NC(C)(c3ccc(C)cc3)C2=O)c1C (centres undefined)	.	0.736	1.9	-5.9	3.3	3.0	-15.8
CCCNc1nc(C)cc(-c2cc(C(=O)NC3CCCC3)on2)n1	i	0.665	-7.9	-6.0	-0.7	3.1	-8.0
CCC(C)c1ccc(Nc2ncccc2C#N)cc1 (centres undefined)	.	0.684	-6.2	-0.1	-3.6	-5.0	37.8
CCCCCCCCCSc1n[nH]c(N)n1	.	0.65	16.0	-4.7	0.4	-1.0	47.7
COc1ccc(Nc2nnc(SCc3cc([N+](=O)[O-])cc4c3OCOC4)s2)cc1	.	0.791	-5.3	0.3	0.3	0.3	-7.4
COC(=O)C1=C(C)N(C)C(=O)/C1=C\c1cccs1	.	0.647	1.3	1.8	5.7	3.2	18.5
O=C(Nc1ccc2nc(-c3cccnc3)[nH]c2c1)c1ccco1	i	0.68	-28.6	-2.8	5.7	6.2	21.3
COc1ccccc1OCC(=O)NCCCn1ccnc1	i	0.694	-6.0	-2.6	2.3	-2.3	-17.6
O=C(NCCc1cccc(F)c1)/C(=C/c1cccnc1)NC(=O)c1ccccc1	i	0.72	-2.3	-2.3	2.9	-1.0	12.7
C#CCOCCOCCOCCNc1nc(N2CCOCC2)nc(N2CCN(C(=O)CCCCCCCCCCNC(=O)[C@@H]([C@H](C)O)n3cc(C)nn3)CC2)n1	i	.	3.6	-2.9	1.4	-0.9	-56.1
OC(COc1ccc(OCc2ccccc2)cc1)CN1CCOCC1 (centres undefined)	.	0.733	-3.2	7.5	3.4	2.5	-0.4
Cc1ccc2nc(N3CCC(C(=O)NC4CCCCC4)CC3)sc2c1	i	0.726	8.1	-0.1	1.1	0.4	-0.4
O=C(C[C@H]1C[C@H](C(=O)N2CCCCC2)[C@@]2(CCc3ccccc3)c3[nH]c4cc(-c5ccco5)ccc4c3CCN2C1=O)NCCC1=CCCCC1	.	0.699	1.7	.	-36.6	19.6	.
Cc1cc(C)c(-c2c(O)c3c(n(C)c2=O)CC(C)(C)CC3=O)c(C)c1	.	0.667	1.6	-5.8	4.4	0.8	-1.0
CCCOc1ccc(C2C3=C(CCCC3=O)N(CC(=O)O)C3=C2C(=O)CCC3)cc1OCC	i	0.689	-6.6	-0.5	1.3	-2.5	-15.5
CC12C(=O)N(NC(=O)c3ccncc3)C(=O)C1C1C=CC2C1 (centres undefined)	i	0.664	-5.5	0.5	0.0	3.0	-3.2
CC(C)(C)c1ccc(C(=O)Nc2cccc3c(=O)[nH][nH]c(=O)c23)cc1	.	.	3.4	2.7	-20.4	-21.1	10.2
C=CCC[C@@H](Cc1ccc(F)cc1)C(=O)OC[C@H](Cc1c[nH]c2ccccc12)NC(=O)[C@@H](CC=C)CC(=O)N(CCO)Cc1ccccc1	.	.	6.6	3.7	2.3	2.2	1.4
O=C(N=Nc1c(O)[nH]c2ccccc12)c1ccc(CN2CCOCC2)cc1	.	0.685	0.6	0.2	12.0	-4.3	-5.6
CCOc1ccc(Nc2cc(C)c3ccccc3n2)cc1	i	0.61	5.2	3.0	-36.6	-1.7	12.8
C=CCNCC(O)COc1ccc(C(C)=O)cc1OC (centres undefined)	i	0.662	1.4	4.9	0.5	-1.8	-4.0
Cc1ccc(OCCCC(=O)Nc2ccc(Br)cc2)cc1	.	0.707	-12.2	2.0	1.8	-1.6	.
CCOC(=O)c1c(C)n(-c2ccc(C)cc2)c2ccc(OCC(O)CNCCCO)cc12 (centres undefined)	i	0.669	18.5	-1.7	4.5	1.3	.
Cc1ccc(CSc2nnc(NC(=O)C3COc4ccccc4O3)s2)cc1 (centres undefined)	.	0.728	1.6	2.5	0.4	0.8	-3.9
Nc1[nH]nc2nc(-c3ccccc3)[nH]c(=O)c12	i	0.648	-4.6	-0.3	-0.1	0.7	11.3
Cn1cc(CCNC(=O)CCc2nnc(CCCCc3ccccc3)o2)cn1	i	0.685	15.9	0.3	1.1	4.4	-4.7
COc1ccc(-c2ccc3c(N)c(C(=O)NC(C)C)sc3n2)cc1OC	i	.	8.7	0.8	.	1.4	19.5
C=CCNc1nnc(SCC(=O)N2CCCCC2)c2ccccc12	.	0.719	-6.8	-1.6	-71.6	-22.0	4.5
CC(c1ccccc1)N1C(=O)NC(NC(=O)C(C)(C)C)(C(F)(F)F)C1=O (centres undefined)	.	0.67	-0.3	2.4	-4.3	0.1	0.7
CC1=C([N+](=O)[O-])C(c2ccc(Cl)cc2)NC(=O)N1 (centres undefined)	i	0.624	4.3	1.7	9.7	1.1	.

Taken from above:
C=CCNc1nnc(SCC(=O)N2CCCCC2)c2ccccc12 @ UCH37 DUB inh = -71.6
CC12C(=O)N(NC(=O)c3ccncc3)C(=O)C1C1C=CC2C1 (centres undefined) @ UCH37 DUB inh = 0.0

Further entries follow.
SMILES	FGF22 binding	Ecoli growth	Beta2AR agonist	LANA-H2B inh	UCH37 DUB inh	HNF4A DNA FP	ALR H2O2 inh
Oc1ccccc1-c1cc(-c2ccc(F)cc2)n[nH]1	i	0.599	-2.7	2.9	0.6	-1.7	1.4
NS(=O)(=O)c1ccc(CCNC(=O)CCc2ccccc2)cc1	i	0.632	2.7	-4.0	4.1	-2.9	0.9
Cn1c(CNC(=O)C(Cc2ccccc2)NC(=O)c2ccccc2F)cc(=O)n(C)c1=O (centres undefined)	i	0.661	8.8	-1.1	1.6	3.9	1.2
COc1ccc(N2CC(NS(=O)(=O)c3cccnc3)CC2=O)cc1OC (centres undefined)	i	0.652	4.0	-2.4	4.4	-2.3	.
COc1ccccc1C1(O)CC2CCC(C1)N2S(=O)(=O)c1ccc(C(C)=O)cc1 (centres undefined)	.	0.686	-8.4	-4.6	2.3	0.7	-16.3
Cc1ccc(C(=O)NNc2ncnc3c2cnn3C)cc1	i	0.65	-5.8	-3.0	6.2	3.7	23.6
CCCC12CN3CC(C)(CN(C1)C3c1ccc3c(c1)OCO3)C2=O (centres undefined)	.	0.725	0.9	0.7	-0.8	-1.8	0.6
Cc1ccc(S(=O)(=O)N2CCCC(C(=O)O)C2)s1 (centres undefined)	i	0.766	10.3	1.4	3.4	2.0	86.7*
NC(=O)COc1cccc(/C=N/NC(=O)c2ccc(-n3cccc3)cc2)c1	i	.	8.2	-21.5	.	2.8	-9.3
COc1ccc(CCNc2ccc(C(CC(N)=O)NC(=O)c3ccccc3)cc2[N+](=O)[O-])cc1 (centres undefined)	.	0.695	-1.4	3.5	1.8	11.8	-1.9
Nc1nc(N2CCN(C(=O)c3ccco3)CC2)nc2ccc(Br)cc12	.	0.599	3.6	-1.5	-35.0	8.8	17.8
COc1ccc(C(=O)COC(=O)COc2cccc3c2OC(C)(C)C3)c(OC)c1	i	0.656	14.7	-5.6	1.8	1.8	2.0
